From PubChem BioAssay
VACV Venus inh = inhibitors of vaccinia virus (Venus reporter); Potency, µM (doses to about 36.5 µM), inactives show at the highest dose activity change, negative = inhibition, actives largely listed as inhibitors; actives 0.46% (n = 330,000); AID 720580; Vaccinia virus Venus reporter expression, fluorescence; active means well fitted inhibition curve with a large enough effect; inconclusive means small, poorly fitted or top-dose-only effect; inactive means no such curve, though single readings can be large or run the other way; tested in A549 cells; also: nearly all actives have a fitted effect of over 30% in size; inactives centre near -10
VACV mCherry inh = vaccinia inhibition (mCherry reporter) | actives 0.63% (n = 310,000) | Potency, µM (top dose mostly 36.5 µM), for inactives: at the highest dose activity change, negative = inhibition, usual class: inhibitors | Vaccinia virus mCherry reporter infection, fluorescence; about a quarter of the inactives have no number; active = well fitted inhibition curve with a large enough effect; inconclusive = small, poorly fitted or top-dose-only effect; inactive = no such curve, though single readings can be large or run the other way; tested in A549 cells; also: nearly all actives have a fitted effect of over 35% in size; inactives centre near -10
The depositor's hits bear a star; i = inactive; ? = inconclusive; . = not tested or not shown; [ ] = dose if it differs, or a comment. % is scaled to controls: 0 for no effect and ±100 for the full control effect; potency is read from the fitted curve at half-maximal effect.

SMILES	VACV Venus inh	VACV mCherry inh
COC(=O)c1scc(-c2ccc(C)cc2)c1S(=O)(=O)N1CCN(c2ccccc2)CC1	-4%	-13%
CCC[C@H]1CCCC/C=C\CCCC(=O)OCCN1C(=O)OC(C)(C)C	-25%	-4%
COc1ccccc1NC(=O)C(CCS(C)(=O)=O)N1C(=O)c2ccccc2C1=O (stereo not given)	-5%	-8%
O=C(NNS(=O)(=O)c1ccccc1[N+](=O)[O-])c1cccnc1	-2%	-22%
CCCCNC(=O)N1CCN(C(=O)c2ccco2)CC1	-15%	-7%
COc1ccc(-c2cc(C(=O)N3CC(C)CC(C)C3)c3ccccc3n2)cc1OC (stereo not given)	-12%	-25%
CC12CCC(C/C1=N\N=C1\NC(=O)/C(=C\c3cccc(Br)c3)S1)C2(C)C (stereo not given)	-28%	i
COc1ccc(N2CCN(c3oc(-c4ccco4)nc3C#N)CC2)cc1	3%	-5%
O=C(CNc1ccc2ccccc2c1)N/N=C/c1ccc([N+](=O)[O-])o1	?	?
O=C(CN1CCCCC1)Nc1cccc(Br)c1	-11%	.
Cc1ccccc1CNC(=O)CCC(=O)N1CCSc2ccccc21	-10%	-5%
C1=Cc2ccccc2/C1=C(\Cc1ccncc1)Oc1ccncc1	?	-21%
COc1cc(OC)cc(C(=O)NCc2ccc3c(c2)cc(C)n3C)c1	-21%	-14%
CC1Cc2cc(S(=O)(=O)NCc3ccccc3Cl)ccc2N1C(=O)C1CCC1 (stereo not given)	-26%	-26%
COc1ccc(OC)c(NC(=O)Cc2c(C)n(C(=O)c3ccc(Cl)cc3)c3ccc(OC)cc23)c1	-18%	-25%
Cc1cc2oc(=O)cc(CNc3ccccc3F)c2cc1O	-6%	?
Cc1ccc(C)c(SCC(=O)OCC(=O)NCCNC(=O)COC(=O)CSc2cc(C)ccc2C)c1	-6%	-2%
CCN(C)C1CN(Cc2cn(Cc3cccc(Cl)c3)nn2)S(=O)(=O)C1 (stereo not given)	-10%	-6%
CCCn1cc(C(=O)N(C)C2CCCN(Cc3ccccc3F)C2)c(C)n1 (stereo not given)	-10%	i
C=C(CC)C(=O)c1ccc(OCC(=O)O)c(Cl)c1Cl	?	?
COc1ccc(OCCn2c(=N)n(CCO)c3ccccc32)cc1	-8%	-20%
COc1ccccc1N1CCN(C(=O)C2Cc3ccccc3CN2C(=O)c2ccco2)CC1 (stereo not given)	-9%	i
Cc1nc(NC(=O)C2CC2)sc1C(=O)Nc1ccccc1	-7%	-18%
Fc1ccccc1Nc1c2c(nc3ccccc13)CCC2	-15%	-17%
O=c1cccc2n1CC1CC2CN(c2ncnc3c2cnn3-c2ccccc2)C1 (stereo not given)	-11%	-19%
CN(/N=C/c1ccco1)C1=NS(=O)(=O)c2ccccc21	-5%	i
Cc1ccccc1OCC(=O)Nc1sc2c(c1C#N)CCC2	-8%	i
CN(C)C(=O)Oc1ccc(OCc2n(C)c3ccccc3[n+]2C)cc1	-7%	-11%
O=C(CSc1nnc2c(n1)[nH]c1ccccc12)Nc1nncs1	-8%	-12%
COc1ccc(C)cc1NC(=O)CNC(=O)[C@@H]1Cc2ccccc2CN1	-20%	i
CC1CCn2c(nc3cc(C(=O)NCc4ccc(F)cc4)ccc32)C1 (stereo not given)	-17%	-13%
COC(=O)CC1C(=O)NCCN1C(=S)NC(=O)C(c1ccccc1)c1ccccc1 (stereo not given)	0%	-17%
O=c1[nH]cnc2sc3c(c12)CCCCC3	?	i
COc1cccc(N2CCN(Cc3nnc(-c4ccc5c(c4)OCO5)o3)CC2)c1	-5%	-6%
CCOc1ccc(C(CC(=O)O)NC(=O)c2ccco2)cc1OC (stereo not given)	-13%	-16%[1.46 µM]
CCN1CCc2nc(NC(=O)c3ccccc3)sc2C1	-7%	i
CC1=C(C(=O)OCc2ccccc2)C(c2ccccc2Br)NC(=O)N1 (stereo not given)	-14%	i
O=C(CCCC(=O)N1CCCc2ccccc21)N1CCCc2ccccc21	-26%	-1%
COc1nccc(C(F)(F)F)c1C(=O)NC(=O)Nc1c(C)cccc1C	-5%	-12%
O=C1CCCC/C1=C/Nc1ccc(S(=O)(=O)Nc2ncccn2)cc1	-15%	.

A second format for two compounds above:
| canonical_smiles | VACV Venus inh | VACV mCherry inh |
| --- | --- | --- |
| Cc1ccccc1OCC(=O)Nc1sc2c(c1C#N)CCC2 | -8% | i |
| O=C(CCCC(=O)N1CCCc2ccccc21)N1CCCc2ccccc21 | -26% | -1% |

Exported with two lines to a compound: 4 of the compounds above
Below each SMILES – VACV Venus inh	VACV mCherry inh
- COc1cccc(N2CCN(Cc3nnc(-c4ccc5c(c4)OCO5)o3)CC2)c1
→ -5%	-6%
- CN(/N=C/c1ccco1)C1=NS(=O)(=O)c2ccccc21
→ -5%	i
- Cc1nc(NC(=O)C2CC2)sc1C(=O)Nc1ccccc1
→ -7%	-18%
- Cc1ccccc1OCC(=O)Nc1sc2c(c1C#N)CCC2
→ -8%	i

(more compounds)
SMILES	VACV Venus inh	VACV mCherry inh
Cc1cccc(-n2ccnc2SCC(=O)Nc2cccc3ccccc23)c1	-4%	-4%
CCN(C(=O)CSc1nnc(-c2ccco2)n1Cc1ccccc1)C1CCS(=O)(=O)C1 (stereo not given)	-15%	-3%
Cc1cc(Cl)ccc1OCCCC(=O)N1CCCCC1	6%	.
O=C(Nc1ccc(NC(=O)c2ccco2)nc1)c1cccnc1	3%	-9%
Cc1cc(C)c2c(=O)cc(C(=O)Nc3sc4c(c3C(=O)NCc3ccccc3)CCCC4)oc2c1	-10%	i
CCc1noc(C)c1C(=O)OCC(=O)Nc1cccc(C)c1	-3%	i
Cc1ccc2c(=O)cc(C(=O)Nc3nc4ccc(Cl)cc4s3)oc2c1	-3%	0%
Cc1ccc(C)c(NC(CC(=O)c2ccccc2)C(=O)OCC(=O)c2cccs2)c1 (stereo not given)	0%	i
CN(C)C1=NCCN1CC1CCCCCC1	-21%	-12%
C/C=C(/C)C(=O)O[C@@H]1[C@H](OC(C)=O)c2c(ccc3ccc(=O)oc23)OC1(C)C	-16%	-1%
COc1ccc(NC(=O)CN2CCN(C3CCCCC3)C(=O)C2=O)cc1	-18%	-18%
CCOC(=O)c1c(C)n(Cc2ccccc2)c2ccc(OCC(O)Cn3nc(C)nc3C)cc12 (stereo not given)	?	-4%
CCOC(=O)C1CCCN(Cc2cn3c(-c4ccc(Br)cc4)nnc3s2)C1 (stereo not given)	-6%	-7%
CCOC(=O)c1csc(NNC=O)n1	2%	-3%
Cc1ccc(CN2CCC(CNc3ncnc4onc(-c5ccc(Cl)cc5)c34)CC2)cc1	-25%	-18%
O=C(O)c1cc(Br)ccc1NN=C1CCCCC1	0%	-4%
COc1ccccc1NC(=O)C1=C(C)Nc2nc(SCc3ccccc3)nn2C1c1ccncc1 (stereo not given)	-1%	-12%
CCOC(=O)C1(Cc2ccccc2)CCN(Cc2cccn2-c2nccs2)CC1	-3%	-8%
COc1ccccc1N(CC(=O)Nc1c(C)cccc1C)S(C)(=O)=O	-10%	-1%
Cc1ccc(N=C2NC(=O)/C(=C/c3cn(C)c4ccccc34)S2)cc1C	175%[activator]	-12%

Grouped by structure: the entries above containing two or more sulfur atoms
SMILES	VACV Venus inh	VACV mCherry inh
COC(=O)c1scc(-c2ccc(C)cc2)c1S(=O)(=O)N1CCN(c2ccccc2)CC1	-4%	-13%
Cc1ccc(C)c(SCC(=O)OCC(=O)NCCNC(=O)COC(=O)CSc2cc(C)ccc2C)c1	-6%	-2%
O=C(CSc1nnc2c(n1)[nH]c1ccccc12)Nc1nncs1	-8%	-12%
CCN(C(=O)CSc1nnc(-c2ccco2)n1Cc1ccccc1)C1CCS(=O)(=O)C1 (stereo not given)	-15%	-3%

Continuation:
SMILES	VACV Venus inh	VACV mCherry inh
COCCCn1c(=N)c(S(=O)(=O)c2ccccc2)cc2c(=O)n3cc(C)ccc3nc21	7%	-3%
COc1ccc(/C=C/C(=O)Nc2ccc(OC)cc2[N+](=O)[O-])cc1	-14%	-9%
Cc1sc2ncnc(NC3CCN(Cc4ccccc4)CC3)c2c1C	?	?
CN(C)CCn1c2ccccc2c2nc3ccc([N+](=O)[O-])cc3cc21	?	i
Cc1cc(C)c(C#N)c(OCC(=O)Nc2ccccc2)n1	-5%	i
O=c1[nH]c(SCCN2CCOCC2)nc(O)c1-c1ccccc1	-7%	i
O=C(OCc1cc2ccccc2[nH]c1=O)c1ccccc1	-28%	?
CCc1sc(C(=O)N2CCN(c3ccc(F)cc3)CC2)cc1C	-5%	-18%
O=C(CCCCCN1C(=O)CCC1=O)Nc1ccc2c(c1)OCO2	-8%	-14%
Cc1ccc(NNS(=O)(=O)c2ccc(C)cc2)cc1	-7%	-17%
Cc1cnc(CNc2cc(-c3ccoc3)ncn2)cn1	17%	5%
Cc1ccc(NC(=O)CN(C)C(=O)c2ccc(S(=O)(=O)N(C)c3ccccc3)cc2)cc1	-10%	i
CCCCNS(=O)(=O)c1ccc(NC(=O)C2CCCO2)cc1 (stereo not given)	-3%	-10%
Cc1ccc(C(=O)OCN2C(=O)c3ccccc3C2=O)o1	-6%	-10%
CCCC(=O)Nc1nc2ccc(OC)cc2s1	-8%	-2%
CC(C)Cc1ccc(CN2C(C)C(=O)N(Cc3cn(Cc4ccco4)nn3)CCS2(=O)=O)cc1 (stereo not given)	2%	i
O=C(Nc1cc(Cl)ccc1O)C1CCCO1 (stereo not given)	2%	.
Cc1ccc(S(=O)(=O)N(C)C)cc1NC(=O)COC(=O)C1CCN(S(=O)(=O)c2cccs2)CC1	-5%	-19%
Cc1cccc(Nc2nnc(SCC(=O)c3ccc(O)cc3O)s2)c1	-8%	-19%
O=C(CCSc1ccccc1)NCCSCc1ccccc1	-14%	-15%
COc1ccnc(CSC(N)=Nc2ccccc2C(F)(F)F)c1	-10%	-6%
Cc1cc(C(=O)Nc2ccccc2)nn1C(C)(C)C	-8%[7.34 µM]	-12%[7.34 µM]
CCOc1cc(C2c3c(-c4ccccc4O)n[nH]c3C(=O)N2Cc2cccnc2)ccc1O (stereo not given)	-7%	-8%
COC(=O)C1=C(C(=O)OC)N2C=CC=CC2(C)C(C(=O)OC)=C1C(=O)OC (stereo not given)	-14%	-4%
CC(C)(C)c1ccc(CN2C3=NCCCN3c3ccccc32)cc1	?	?
CN(C/C=C/c1ccccc1)Cc1cccc2ccccc12	-15%	-27%
CN(Cc1ccc(Cl)cc1Cl)C(=O)C1CSC2(C)CCC(=O)N12 (stereo not given)	-18%	i
O=C(Nc1ccc2c(c1)OCO2)c1cc(-c2cccnc2)nc2ccccc12	-2%	-12%
CCOc1ccc(C(=O)OCC(=O)NCCNC(=O)COC(=O)c2ccc(OCC)cc2)cc1	-15%	-7%
CC(=O)Nc1ccc(OC(=O)c2cc3ccccc3oc2=O)cc1	-12%	-8%[1.46 µM]
CCCOC(=O)C1C2c3ccccc3C(c3ccccc32)C1C(=O)O (stereo not given)	0%	i
CCc1ccc(NC(=O)CN2CCCN(Cc3cccc(Cl)c3)S2(=O)=O)cc1	-14%	-19%
COc1ccccc1N1CCN(C2CC(=O)N(C)C2=O)CC1 (stereo not given)	6%	-10%
CC1(C)CC(=O)c2c(nc(SCC(=O)Nc3nsc(-c4ccccc4)n3)c(C#N)c2-c2ccccc2)C1	-19%	-15%[1.46 µM]
CCc1nc(N2CCCC2C(=O)O)c2oc3ccccc3c2n1 (stereo not given)	?	.
Clc1cccc(OCCn2ccnc2)c1	-18%	0%
C/C(=N\N=C(/N)SC1CC(=O)N(c2cccc(Cl)c2)C1=O)c1cccs1 (stereo not given)	-8%	-1%
CC(C)NC(=O)c1ccccc1NC(=O)Cc1ccc([N+](=O)[O-])cc1	-11%	i
COc1ccc(/C=N/Nc2nonc2N)c(OC)c1	-24%	-25%
Cc1ccc2nc(/C(C#N)=C\c3ccc(Oc4ccc(C(F)(F)F)cc4[N+](=O)[O-])cc3)[nH]c2c1	-9%	-14%

Single entries from the results shown:
CCOc1ccc(C(=O)OCC(=O)NCCNC(=O)COC(=O)c2ccc(OCC)cc2)cc1 in VACV mCherry inh = -7%
CC(=O)Nc1ccc(OC(=O)c2cc3ccccc3oc2=O)cc1 in VACV mCherry inh = -8%[1.46 µM]

The listing continues:
SMILES	VACV Venus inh	VACV mCherry inh
COc1ccccc1OCC(=O)NCC1CCCN(Cc2cnn(C(C)C)c2)C1 (stereo not given)	-12%	-18%
O=C(O)c1cc(N/N=C2/CC(c3ccccc3)Oc3ccccc32)ccc1Cl (stereo not given)	-13%	-14%
CCn1ncc(Br)c1C(=O)Nc1ccc2c(c1)OCCO2	-13%	-2%
O=C(Cn1nnc2ccccc21)OCC(=O)c1ccc(Cl)c(Cl)c1	2%	.
CC1(C)Cc2cccc(OCC(=O)N3CCN(S(=O)(=O)c4ccc(F)cc4)CC3)c2O1	-11%	-24%
COc1ccc([N+](=O)[O-])cc1NC(=O)CCc1ccccc1	3%	-10%
O=C(Nc1cc(C(F)(F)F)ccc1-n1cnc2ccccc21)c1ccccc1	0%	0%
CCN(CC(O)CON=C1c2ccccc2-c2ccccc21)S(=O)(=O)c1ccc(C)cc1 (stereo not given)	-18%	i
CCN(CC(=O)NCc1cccs1)C(=O)/C=C/c1ccc(OC)c(OC)c1	-16%	i
CN1CCN(C(=O)c2ccc(NS(=O)(=O)c3cccc([N+](=O)[O-])c3)cc2)CC1	2%	-14%
CC1(C)C2CC=C(CN3CCOCC3)C1C2 (stereo not given)	-4%	-10%
CCCc1cc(=O)[nH]c(SCC(=O)Nc2nonc2C)n1	0%	i
Cc1cc(S(=O)(=O)N2CCOCC2)ccc1OCC(=O)N1CCC(C)CC1	3%	-13%
Cc1ccc(NC(=O)C2C(=O)N(CCO)C3(C)CC2c2ccccc2O3)cc1 (stereo not given)	-18%	i
